YopH PTP inh = blocks Yersinia enterocolitica YopH tyrosine phosphatase. 140,000 tested, 0.16% active. inhibition, %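 (about 10 µM by stock and volumes)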. fluorescence Ex485/Em525. AID 898;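 active = inhibition of 50% or more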;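 also: controls were vehicle for no effect and minimum signal wells for full effect; inactives centre near -20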
Arbovirus anti = arbovirus infection inhibition | arbovirus infection cell-based antiviral screen | inhibition, % at 10 µM | 200,000 tested, 0.37% active | AID 1251;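 active = inhibition from about 30%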;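 also: bluetongue infection of BSR cells; cell survival read as ATP light after 72 h; 0% = infected wells without compound and 100% = uninfected wells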
Mtb bLac sens = beta-lactam sensitization of Mtb H37Rv | M. tuberculosis H37Rv growth with meropenem, percent inhibition; hits of this screen are not shown here | inhibition, % at 25 µM | 330,000 tested, 0.27% active | AID 434955;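 active = about 74% or more and at least 40 points above the plate without the antibiotic, then above 30% in a dose series; inconclusive = first-round hits that could not be retested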;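 also: growth measured after seven days incubation then overnight dye step; 0% = bacteria only wells and 100% = bacteria with antibiotic; twin plates without the antibiotic show which effects depend on it; some results filed as inactive read as strong as hits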
Mtb growth = M. tuberculosis H37Rv growth inhibitors, H37Rv strain (AID 1626). M. tuberculosis H37Rv growth inhibition; higher % means a stronger effect. one-dose inhibition, % at 10 µM; IC50 in µM for titrated hits. 220,000 tested, 0.95% active;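 active = confirmed in a dose series; inconclusive = inhibition above 80% but not taken into the dose series; inactive = below 80% or under 30% at every dose of the series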;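 also: bacteria incubated seven days before Alamar blue readout; 0% = bacteria only wells and 100% = bacteria with antibiotic wells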
RecA splice inh = inhibitors of M. tuberculosis RecA intein splicing; P9WHJ3; cell-free RecA intein splicing, fluorescence; 290,000 tested, 0.75% active; AID 2221; inhibition, %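 (about 9 µM by stock and volumes)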; in the data active = inhibition above about 30%; inconclusive = no clear call, values can overlap the other calls;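 also: 0% = vehicle wells and 100% = reference inhibitor control wells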
Target sequence (P9WHJ3 whole entry, looked up, canonical isoform): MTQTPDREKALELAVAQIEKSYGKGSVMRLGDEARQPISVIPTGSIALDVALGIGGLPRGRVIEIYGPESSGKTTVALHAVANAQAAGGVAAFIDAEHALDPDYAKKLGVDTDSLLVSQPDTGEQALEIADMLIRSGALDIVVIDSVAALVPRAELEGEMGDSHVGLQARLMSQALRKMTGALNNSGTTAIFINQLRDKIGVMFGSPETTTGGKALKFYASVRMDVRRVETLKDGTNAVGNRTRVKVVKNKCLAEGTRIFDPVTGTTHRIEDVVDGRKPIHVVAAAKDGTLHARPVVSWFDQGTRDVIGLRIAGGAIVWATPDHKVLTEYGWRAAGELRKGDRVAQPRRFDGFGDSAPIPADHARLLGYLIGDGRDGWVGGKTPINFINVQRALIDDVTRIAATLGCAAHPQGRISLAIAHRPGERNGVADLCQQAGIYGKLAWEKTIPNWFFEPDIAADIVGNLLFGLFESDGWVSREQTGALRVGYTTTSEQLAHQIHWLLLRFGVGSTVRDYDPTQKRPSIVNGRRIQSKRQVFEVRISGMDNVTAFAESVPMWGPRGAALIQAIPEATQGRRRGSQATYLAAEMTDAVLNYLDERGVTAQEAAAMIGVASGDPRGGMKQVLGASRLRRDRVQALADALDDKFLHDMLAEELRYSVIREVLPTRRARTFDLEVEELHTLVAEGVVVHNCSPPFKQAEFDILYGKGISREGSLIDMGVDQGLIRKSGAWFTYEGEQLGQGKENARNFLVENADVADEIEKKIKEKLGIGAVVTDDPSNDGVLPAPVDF
Arbovirus anti repeat = also measured in Arbovirus anti; calls as there; inhibition, %; measured here: 10K subset replicate screen; many hits read low in the repeat;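 first of two repeat runs on a subset; 0% = infected and 100% = uninfected wells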
The depositor's hits bear a star; ? = inconclusive; . = not tested or not shown.

SMILES | YopH PTP inh | Arbovirus anti | Mtb bLac sens | Mtb growth | RecA splice inh | others
CN(C=O)CP(=O)(O)CN1CCCCC1 | -33.7 | 5.0 | . | . | -4.8
CC(=O)N1CCSc2ccc(S(=O)(=O)Nc3ccccc3C)cc21 | . | . | -3.4 | . | 5.1
O=C(Cc1ccc(F)cc1)N1CCN=C1SCc1cccc([N+](=O)[O-])c1 | . | 1.3 | -1.4 | 4.8% | 11.0
CCOC(=O)C1=C(O)C(=O)N(CCCn2ccnc2)C1c1ccc(C)cc1 (centres undefined) | . | 9.7 | 0.3 | -1.5% | -3.6
COC(=O)c1cc(F)c(-n2cncn2)c(F)c1 | -29.7 | 7.2 | -5.2 | -4.0% | -1.0
COc1ccc(NC(=O)C2CCC(=O)N2S(=O)(=O)c2ccc(C)cc2)cc1Cl (centres undefined) | . | . | -0.3 | . | 11.1
CCCCn1c2ccc(F)cc2c2nnc(SCCN3CCOCC3)nc21 | . | . | 15.0 | . | 2.3
CSc1ccc(S(=O)(=O)Nc2ccccc2C(=O)N2CCOCC2)cc1 | . | . | -2.7 | . | -1.0
Oc1oc(-c2ccccc2)nc1C=Nc1cccc2ccccc12 | -136.4 | -6.8 | 47.1 | 0.3% | -1.9
CCNC(=O)N1C(CC(=O)OCC)C(=O)NC2CCCCC21 (centres undefined) | 26.5 | 2.4 | 5.2 | -5.4% | 2.9
CNC(=O)CSc1nnc(C(C)C)n1C | . | 3.5 | -0.6 | 4.9% | -3.9
O=C(/C=C/c1ccc(F)cc1)N1CCN(c2ccccn2)CC1 | -19.3 | -8.7 | 3.2 | -6.5% | 3.5
N#Cc1c(NC(=O)CSc2nc(N)cc(=O)[nH]2)sc2c1CCCCCC2 | -10.8 | 1.9 | 2.1 | -6.1% | -1.0
Cc1ccc(NC(=O)CN(C)S(=O)(=O)c2cccc3cccnc23)cc1 | -6.4 | 6.7 | -5.0 | 0.5% | .
CC(C)OC(=O)c1c(N)n(CCCN2CCOCC2)c2nc3ccccc3nc12 | 2.5 | 0.9 | -7.0 | 0.0% | -212.9
Cc1ccc(N2CC(C(=O)N3CCC4(CC3)CC(=O)c3ccccc3O4)CC2=O)cc1C (centres undefined) | . | . | -3.8 | . | 1.1
COC(=O)c1cccc(NC(=O)CN2CCc3ccccc3C2)c1 | . | . | -5.7 | . | 1.0
COc1ccccc1CN1C(=NC(=O)CCC2CCCC2)SC2CS(=O)(=O)CC21 (centres undefined) | . | . | 5.0 | . | 1.3
COc1ccc(CNCC(O)(c2ccc(Cl)cc2)c2ccc(Cl)cc2)cc1 | 6.1 | -37.0 | 88.0 | -1.7% | 10.2
COc1ccc(-n2nc3c(c2NC(=O)C24CC5CC(CC(C5)C2)C4)CS(=O)C3)cc1 (centres undefined) | -34.6 | 1.8 | -1.6 | -4.4% | -1.4 | Arbovirus anti repeat=2.2
CCOC(=O)C1C(=O)OC2(CCOC(C)(C)C2)C1C(=O)OCC (centres undefined) | -52.2 | 5.8 | 5.0 | -7.0% | -1.0 | Arbovirus anti repeat=1.8
Cc1nc(-c2ccc(NC(=O)c3ccccc3C)cc2)cs1 | . | -9.7 | -1.4 | 7.7% | 8.3
O=C(CCN1CCN(CCO)CC1)Nc1cccc(Br)c1 | . | . | -4.2 | -3.2% | 0.9
Cc1ccccc1CN1CCN(CCCc2ccccc2)C(CCO)C1 (centres undefined) | . | . | -10.4 | . | 1.8
C[C@]12C(=O)N(c3cccc(F)c3)C(=O)N1[C@@H]1c3ccccc3OC[C@@H]1[C@H]2c1ccccc1 | . | . | 0.1 | . | 16.3

The list goes on; the last 4 above are carried over.
SMILES | YopH PTP inh | Arbovirus anti | Mtb bLac sens | Mtb growth | RecA splice inh | others
Cc1nc(-c2ccc(NC(=O)c3ccccc3C)cc2)cs1 | . | -9.7 | -1.4 | 7.7% | 8.3
O=C(CCN1CCN(CCO)CC1)Nc1cccc(Br)c1 | . | . | -4.2 | -3.2% | 0.9
Cc1ccccc1CN1CCN(CCCc2ccccc2)C(CCO)C1 (centres undefined) | . | . | -10.4 | . | 1.8
C[C@]12C(=O)N(c3cccc(F)c3)C(=O)N1[C@@H]1c3ccccc3OC[C@@H]1[C@H]2c1ccccc1 | . | . | 0.1 | . | 16.3
Cc1cccc(N(C(=O)Cn2nnc(-c3ccc(F)cc3)n2)C(C(=O)NC(C)(C)C)c2ccncc2)c1 (centres undefined) | . | -4.5 | 1.6 | -1.9% | -2.1
CCOc1ccc(NC(=O)COc2nsnc2N2CCOCC2)cc1 | . | 1.7 | -0.1 | -5.5% | 2.9
COC(=O)C1=C(C)NC(=O)/C1=C\c1cccs1 | -9.1 | -3.2 | -2.1 | 1.3% | -2.1
CCOc1ccc(S(=O)(=O)N2CCCCCC2)cc1 | -4.4 | -8.9 | -0.8 | 4.4% | 3.1
O=C(Cn1nc(C(F)(F)F)c2c1CCC2)NC1CCCCC1 | -27.5 | -6.4 | 0.4 | 3.4% | 0.0
CCOC(=O)C1CCN(C(=O)Nc2ccc(C)c(Cl)c2)CC1 | . | . | -3.1 | 1.1% | 1.6
Cc1ccc(CCN2CCN=C2N(C)C)cc1 | . | . | 0.2 | . | -0.5
CCOc1ccc(S(=O)(=O)Nc2cc(OC)ccc2OC)cc1 | -9.3 | -15.7 | -2.6 | 12.4% | 2.7
C=CCn1cccc(C(=O)Nc2ccc(N(C)C)cc2)c1=O | . | . | -8.6 | . | -1.5
Cc1ccc(CN2CCN(C3CCOCC3)CC2CCO)cc1 (centres undefined) | . | 1.6 | -3.6 | 1.8% | -1.9
CC(=O)Nc1ccc(NC(=O)CSc2nnc(NC(=O)c3cccc(F)c3)s2)cc1 | . | . | -4.3 | . | -1.1
Cc1cc(-c2ccccc2)n(-c2ccccc2)n1 | . | . | 5.2 | . | 1.9
CC1CC(Nc2cccc(O)c2)=CC(=O)O1 (centres undefined) | -21.2 | 4.0 | -7.9 | -4.1% | -1.8
N=c1c(S(=O)(=O)c2ccccc2)cc2c(=O)n3ccccc3nc2n1C1CCCC1 | . | . | 1.5 | . | -41.7
O=C/C(=C\Nc1ccc(Cl)cn1)c1nc2cc(Cl)ccc2o1 | -35.6 | 30.3* | 64.3 | 12.5% | -4.9
CCN(CC(=O)NCc1ccc(Cl)cc1)C(=O)CCOc1ccc(C)cc1 | . | . | 0.2 | . | 2.0
O=c1[nH]c(-c2ccc(Cl)cc2)nc2c1cnn2-c1ccccc1 | -4.9 | -3.6 | . | 1.9% | -0.2
Cn1c(SCc2ccc(Br)cc2)nnc1-c1ccccn1 | . | . | 5.0 | 1.8% | -0.3
CC(C)Oc1ccc(OCCNC2CCCC2)cc1 | 3.4 | -7.2 | -6.7 | -4.8% | 2.3
CSc1ccc(S(=O)(=O)N2CCN(Cc3ccc4c(c3)OCO4)CC2)cc1 | -7.3 | 1.0 | 6.8 | 2.4% | 8.0 | Arbovirus anti repeat=4.9
c1ccc(-c2nnsc2Sc2ccccn2)cc1 | . | 0.7 | 6.4 | 4.3% | 6.5
COc1ccccc1N1CCN(S(=O)(=O)c2ccc3c(c2)CC(C)N3C(C)=O)CC1 (centres undefined) | . | . | ? | . | 7.6
COc1cc(C(=O)Nc2ccc(S(=O)(=O)N3CCOCC3)cc2)c([N+](=O)[O-])cc1OC | . | -0.6 | 0.5 | 3.6% | .
COc1ccc(Cc2nnc(N/N=C/c3ccc(O)cc3O)[nH]c2=O)cc1OC | -21.7 | -15.8 | -1.0 | -10.9% | -0.1
Cc1cc(Cl)ccc1OCC(=O)NNC(=O)C1CSC2(C)CCC(=O)N12 (centres undefined) | . | . | 3.4 | . | 1.9

(listing goes on)
SMILES | YopH PTP inh | Arbovirus anti | Mtb bLac sens | Mtb growth | RecA splice inh | others
Cc1nn(-c2ccccn2)c2nc(-c3cccs3)cc(C(=O)NCc3ccco3)c12 | 16.0 | -22.0 | -9.1 | 6.3% | 3.1
S=C(NC1CC1)NC1CCCc2ccccc21 (centres undefined) | . | 5.0 | -0.7 | -10.5% | -1.1
Cc1c(-n2cc(C(=O)c3cc(Cl)ccc3O)cc(C#N)c2=O)c(=O)n(-c2ccccc2)n1C | 18.1 | 2.6 | -2.0 | -10.1% | 2.5
CCOC(=O)C1(Cc2cccc(OC)c2)CCN(Cc2ccon2)CC1 | . | . | 7.0 | -9.6% | -1.7
O=C(COc1cccc(Cl)c1)N/N=C\c1cc2ccccc2nc1Cl | -16.0 | -3.7 | 4.8 | -5.5% | -0.7
COc1cc(NC(=O)c2ccco2)c(C(=O)OCC(=O)c2c[nH]c3ccccc23)cc1OC | -28.7 | -18.8 | -0.5 | 25.9% | 1.1
CCN1CCN(C(=O)c2cc3cc4ccc(OC)cc4nc3s2)CC1 | -6.8 | 0.8 | 1.2 | -1.1% | -11.1
c1ccc(-c2nnc(NC3=NCCC3)o2)cc1 | . | 0.5 | 5.8 | 1.4% | -0.4
Cc1cc(C)cc(NC(=O)COC(=O)COc2cccc3c2OC(C)(C)C3)c1 | . | . | 3.3 | . | 2.5
O=C(Nc1ccc(Cl)cc1)C1C2CCC3C(CCC21)C3(Cl)Cl (centres undefined) | -45.9 | -0.4 | . | -8.9% | .
CCOc1ccccc1CN1C(=O)NC(C)(c2ccccc2)C1=O (centres undefined) | -32.6 | 4.4 | -1.2 | -6.6% | 4.9
CCCCCn1c(CCC(=O)Oc2ccccc2OC)nc2c1c(=O)[nH]c(=O)n2CCCC | -5.7 | 7.6 | -6.6 | 5.1% | 2.2
CS(=O)(=O)N1CCC(C(=O)NCc2ccc(F)cc2Cl)CC1 | -11.3 | 1.0 | 7.7 | -8.5% | 0.5
Cc1cc(Cl)ccc1OC(C)C(=O)NCCCCc1ccccc1 (centres undefined) | -21.4 | -32.6 | 84.3 | 8.4% | 3.3
COC(=O)c1sc2nc(-c3ccco3)ccc2c1N | -30.6 | 3.5 | -11.5 | 4.1% | -5.6
COc1ccc(-c2[nH]ncc2CN(C)Cc2nonc2C)c(OC)c1 | . | 0.8 | -6.8 | -4.8% | -12.7
COc1ccc(N2CC(O)=C(c3nc(-c4ccc(Br)cc4)cs3)C2=N)cc1 | . | -2.9 | -5.5 | 7.9% | 3.2
CN(/N=C/C=C/c1ccccc1)c1cc(=O)n(C)c(=O)[nH]1 | -12.6 | -12.6 | ? | 5.6% | 11.8
Cc1ccc(NC(=O)C(=O)C2C(=O)Nc3ccccc32)cc1 (centres undefined) | . | . | -11.0 | 3.5% | 3.5
C=CCN1C(=O)/C(=C2/Sc3ccc(OC)cc3N2CC)SC1=S | . | . | -4.1 | . | -2.0
CSCC(C)N1CCC(CCC(=O)NC2CC2)CC1 (centres undefined) | . | . | 2.3 | . | -3.0
COc1cc(OC)cc(N2C(=O)CSCC2=O)c1 | . | . | 0.2 | -3.8% | 0.1
COc1cc(CN2CCN(C(=O)c3cccc4ccccc34)CC2)cc(OC)c1O | . | . | -1.7 | . | -5.5
CN1C2CCC1CC(NS(=O)(=O)c1cccc(C(F)(F)F)c1)C2 (centres undefined) | . | . | -4.3 | . | -1.5
O=S(=O)(c1ccccc1)N1CCN(CCc2ccccc2)CC1 | . | . | 9.3 | . | -3.8

Continuation.
SMILES | YopH PTP inh | Arbovirus anti | Mtb bLac sens | Mtb growth | RecA splice inh | others
Cc1ccc2sc3ccc(NC(=O)c4ccccc4Cl)cc3c(=O)c2c1 | -31.6 | -31.2 | 23.7 | 1.4% | 0.7
COc1ccccc1C1/C(=C(/O)c2ccccc2)C(=O)C(=O)N1CC(C)O (centres undefined) | -40.2 | 1.1 | 4.6 | 13.9% | -3.1
COC(=O)/C=C/c1ccc(OC(=O)OC)c(OC(=O)OC)c1 | -7.0 | -17.0 | 7.4 | 22.1% | -10.5
C/C(Cc1ccccc1)=N\NC(=O)CNC(=O)c1cccc(Br)c1 | -4.5 | 2.1 | -3.4 | -2.2% | -4.0
CC[n+]1ccccc1/C=C/c1ccc(N(C)C)cc1 | . | 0.3 | . | -5.4% | 0.8
O=C(Nc1ccc2c(c1)CCC2)C1CCN(c2ncccn2)CC1 | -35.0 | 7.1 | 5.1 | 3.1% | .
CSc1ccc(NS(=O)(=O)c2ccc(-n3cnnn3)cc2)cc1 | . | . | -4.2 | . | -1.3
O=C1NC(=O)C(CCc2ccncc2)(CCc2ccncc2)C(=O)N1Cc1ccc(F)cc1 | . | 5.5 | 0.2 | -7.4% | -2.2
C=CCN(CC=C)C(=O)C(=O)c1ccn(-c2c(C)csc2C(=O)OC)c1 | . | 5.3 | -2.2 | 0.2% | -0.7
CCN1CCCC1CNC(=O)c1cc2ccc(OC)cc2[nH]1 (centres undefined) | . | . | -4.0 | . | -2.0
O=C(NCc1ccccc1)c1csc(-c2cccnc2)n1 | . | . | 3.8 | -4.0% | 0.5
CC(=O)Oc1ccccc1C1C[C@]2(C)CC(=O)NC2N1C(C)=O (some centres undefined) | . | -0.5 | 2.2 | 4.2% | 0.1

Screening results as filed in PubChem.

An excerpt; rates above refer to the full screens.
